# PINK1 expr mod = PINK1 expression modulation; PINK1 immunofluorescence, high-content cytometry, 24 h; actives 0.2% (n = 410,000); Potency, µM (top dose mostly 76.6 µM), for the others: at the highest dose activation (PINK1 increase), most hits filed as activators; AID 624263; active = well fitted activation curve with a large enough effect; inconclusive = small, poorly fitted or top-dose-only effect; inactive = flat fitted curve, though single readings scatter; cell line not stated here;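 also: potency is read from the fitted curve at half-maximal effect; % of control where 0% means no effect; nearly all actives have a fitted effect of over 65% in size; a mitochondrial uncoupler was the plate control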
#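 Cells are seeded, rested 12 hours, then given compound at five concentrations or DMSO for 24 hours. After fixation, blocking and antibody staining, PINK1 amount and mitochondrial localization are scored; CCCP serves as control.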
# Six1-Eya2 blk = Six1/Eya2 interaction inhibition; AlphaScreen GST-Six1/His-Eya2 binding, biochemical; active compounds read low; control for the full effect not named in the record; activity change, % (no concentration beside the values); Q15475+O00167; actives 0.56% (n = 360,000); AID 651725; in the data active = activity change below about -65%; inconclusive = about -30% to -65%; inactive = above about -30%; also: % is scaled to controls: 0 for no effect and ±100 for the full control effect
# Target sequence (O00167 whole entry, looked up): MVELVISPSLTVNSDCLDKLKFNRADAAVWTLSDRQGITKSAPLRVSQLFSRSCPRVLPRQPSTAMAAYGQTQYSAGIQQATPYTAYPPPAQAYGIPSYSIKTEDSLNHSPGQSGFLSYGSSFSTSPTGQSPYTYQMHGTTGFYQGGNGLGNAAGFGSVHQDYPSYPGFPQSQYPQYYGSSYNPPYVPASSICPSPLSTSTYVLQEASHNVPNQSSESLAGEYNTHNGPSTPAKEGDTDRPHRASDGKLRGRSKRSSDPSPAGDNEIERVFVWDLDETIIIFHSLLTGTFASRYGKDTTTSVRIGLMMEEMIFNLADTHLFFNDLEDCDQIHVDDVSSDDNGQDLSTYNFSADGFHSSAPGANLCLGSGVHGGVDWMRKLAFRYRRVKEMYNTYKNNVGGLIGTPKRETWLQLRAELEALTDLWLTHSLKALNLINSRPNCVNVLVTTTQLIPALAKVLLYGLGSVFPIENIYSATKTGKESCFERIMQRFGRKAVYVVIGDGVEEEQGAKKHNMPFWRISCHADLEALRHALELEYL
# Target sequence (Q15475 whole entry, looked up): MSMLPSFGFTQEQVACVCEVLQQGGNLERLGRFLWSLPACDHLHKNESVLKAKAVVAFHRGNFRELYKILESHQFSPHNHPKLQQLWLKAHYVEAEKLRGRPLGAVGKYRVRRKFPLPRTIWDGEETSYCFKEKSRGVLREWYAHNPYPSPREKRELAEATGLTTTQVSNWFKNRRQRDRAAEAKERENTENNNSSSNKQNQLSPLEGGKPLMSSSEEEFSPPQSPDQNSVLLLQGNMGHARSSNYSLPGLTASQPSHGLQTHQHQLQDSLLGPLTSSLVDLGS
#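 AlphaScreen with GST-Six1 and His-Eya2 (5X mix: 250 nM and 500 nM), glutathione donor and nickel acceptor beads; buffer 50 mM Tris pH 8.0, 300 mM NaCl, 1 mM TCEP; 1 h at 37 C in the dark.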
# TRPML1 inh = inhibitors of human TRPML1 channel. TRPML1-inducible cells, Ca2+ dye fluorescence, FDSS; active compounds read low; inhibition of EC80 agonist-evoked calcium signal. activity change, negative = inhibition, % (concentration not given with the values). Q9GZU1. AID 624415. actives 0.02% (n = 390,000); in the data active means activity change below about -50%; inconclusive means about -30% to -50%; inactive means above about -30%;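 also: stimulus is agonist 54-4 at its EC80 concentration; % is scaled to controls: 0 for no effect and ±100 for the full control effect; the text of the record puts the active cut at -80%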
#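 Tet-induced TRPML1-DL cells loaded with Ca8 no-wash calcium dye were read kinetically on FDSS. Compound addition was followed by EC80 agonist 54-4 (4 uM final); inhibition was read over 110 s.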
# D2 agonist = activates the human D2 dopamine receptor; DiscoveRx PathHunter D2 beta-arrestin, luminescence, 90 min; 100% = 57 uM dopamine signal; activation, % (concentration not given with the values); P14416; actives 0.084% (n = 360,000); AID 624465; in the data active = activation above about 40%; inconclusive = about 15% to 40%; inactive = below about 15%; also: compound concentration not given in the record; the text of the record calls up to 30% inactive
#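 DiscoveRx PathHunter D2 beta-arrestin cells (2,100/well) attached overnight, then compound-stimulated 90 min at 37 C in HBSS/10 mM HEPES/0.1% Tween-20 buffer; beta-galactosidase complementation read by luminescence after 1 h at ambient temperature. Dopamine 57 uM final (EC100) as control.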
# TRPML1 agonist = human mucolipin-1 channel agonism. Q9GZU1. TRPML1-expressing cells, Ca2+ dye fluorescence, FDSS; host cell line not named in the record; reference of the full effect not given here. activation, % (test concentration not listed). actives 0.12% (n = 410,000). AID 624414; in the data active = activation above about 50%; inconclusive = about 30% to 50%; inactive = below about 30%; also: 0% is about no effect; the text of the record puts the active cut at 80%
#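 In this qHTS format, compounds were pin-transferred onto Ca8-dye-loaded TRPML1-DL cells induced with Tet overnight, and intracellular Ca2+ fluorescence was recorded kinetically for 110 s after a 10 s baseline. A subsequent 4uM final 54-4 (EC80) addition followed by a second 110 s read served as the antagonist phase.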
# D2 PAM = positive allosteric modulators of human D2 dopamine receptor; P14416; DiscoveRx D2 beta-arrestin cells, luminescence, 90 min; 100% = 57 uM dopamine signal; potentiation, % (no concentration beside the values); actives 0.23% (n = 360,000); AID 624464; active = potentiation of 50% or more; inconclusive = 30% to 50%; inactive = 30% or less;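 also: compound concentration not given in the record; tested on top of an EC20 dose of dopamine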
#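 PathHunter beta-arrestin assay in DiscoveRx D2 cells. Compounds were added with an EC20 of dopamine (50 nM final) for 90 min at 37 deg C. Luminescence was read 1 h after detection reagent, with 57 uM dopamine as the EC100 control.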
# * hit, by the source's call; ? = inconclusive; . = not tested or not shown; [ ] = remark or other dose. Compounds as they come, and some 1% of all compounds hit somewhere here.
# Second line of a record: PINK1 expr mod	Six1-Eya2 blk	TRPML1 inh	D2 agonist	TRPML1 agonist	D2 PAM
1) CN1CCN(C(=O)/C(=C/c2cn(C)c3ccccc23)NC(=O)c2ccccc2)CC1
    -0.9%	-4.3	-2.8	-3.7	0.3	-44.3
2) COc1ccc(NC(=S)NCCCn2ccnc2)cc1
    0.3%	-1.2	-14.7	1.5	0.6	13.7
3) Cc1ccc(CNC(=O)C2CCCN(S(=O)(=O)N3CC(C)CC(C)C3)C2)cc1 (stereo not given)
    2.4%	0.4	15.0	0.8	-1.7	-6.9
4) O=c1cc(N2CCc3ccccc32)[nH]c(=O)n1-c1ccc(Br)cc1
    0.7%	10.5	1.5	-0.6	-0.2	-4.3
5) COCCNC(=O)CSc1ccccc1C(=O)O
    1.8%	10.7	20.5	-0.6	-0.1	-6.8
6) COc1cc(NS(=O)(=O)c2ccc(NC(=S)NC(=O)C3CCCC3)cc2)nc(OC)n1
    3.3%[38.3 µM]	-24.7	-7.4	-2.8	0.3	1.9
7) CN(CCNC(=O)c1cccc(N2CCCC2=O)c1)Cc1ccccc1
    -2.2%	0.4	-3.4	-1.2	3.1	-38.4
8) O=C(CSc1nnc(-c2cccs2)o1)c1cccs1
    .	-0.7	13.2	2.6	0.1	-12.9
9) O=C(COC(=O)c1ccccc1O)NCC1COc2ccccc2O1 (stereo not given)
    0.2%	8.2	20.6	0.2	1.1	-13.4
10) CC1(C)Cc2ccccc2C(CSc2ccccc2C(=O)O)=N1
    0.6%	-28.5	-7.0	-2.3	-0.3	-8.5
11) CC(O)CC(=O)NOCc1ccccc1 (stereo not given)
    -0.8%	4.4	1.6	0.3	-0.5	.
12) Cc1cccc(C(c2sc3nc(-c4ccco4)nn3c2O)N2CCN(Cc3ccccc3)CC2)c1 (stereo not given)
    1.7%	.	-0.1	.	1.0	.
13) COCCCNC(=O)C1=CCN(S(=O)(=O)c2ccc(OC)cc2)CC1
    1.8%	6.2	-18.0	0.9	0.6	-4.1
14) O=C(CSc1ccc(-c2cccs2)nn1)Nc1cccc(F)c1
    2.8%	.	-5.4	.	0.9	.
15) CCOc1ccc(/C=N/NC(=O)c2nnn(-c3nonc3N)c2-c2ccc(OCC)cc2)cc1
    3.9%	-5.7	-9.6	0.5	-1.0	-2.9
16) CCOC(=O)c1cc(NC(=O)CC(C)(C)CC(=O)O)ccc1N1CCCCC1
    -2.2%	20.9	-2.2	-6.8	1.8	0.8
17) O=C(O)c1cccc(S(=O)(=O)NCC2CCCO2)c1 (stereo not given)
    -0.6%	-0.4	-7.4	-3.8	-0.2	-5.0
18) CC(C)NCC(O)c1ccc2ccccc2c1 (stereo not given)
    0.1%	-2.1	8.5	2.2	-0.3	-10.0
19) CSc1ccc(-c2nc3cccc(C)n3c2Nc2ccc(Cl)cc2)cc1
    4.0%	.	-2.2	.	2.1	.
20) Cc1c(C(=O)N(Cc2ccccc2)Cc2cccs2)cnn1-c1ccc(Cl)cc1
    0.5%	2.9	-2.6	-1.8	-0.1	-7.3
21) Cc1cc(C(=O)Nc2ccc(Cl)cc2)c(C)n1-c1ccccc1
    ?	-14.2	-3.6	4.5	1.7	-1.4
22) CCCCN(C)CCCNC(=O)c1cc(-c2ccc(Br)s2)nc2ccccc12
    0.6%	.	3.9	.	-0.6	.
23) COc1cc(OC)cc(-c2nnc(SCc3c(F)cccc3Cl)o2)c1
    -4.2%[38.3 µM]	21.7	-8.4	-2.0	1.2	-0.1
24) CCc1ccc(C)c(OC(=O)c2cncc(Br)c2)c1
    2.3%	1.4	.	3.0	.	12.5
25) Cc1nc(NS(=O)(=O)c2ccccc2)sc1NC(=O)OC(C)C
    .	-0.5	-4.2	8.0	-0.3	21.2
26) Cc1ccc(C(=O)N2CCN(c3ccc(NC(=O)Cc4ccccc4)cc3)CC2)cc1
    -0.3%	-3.0	16.8	-2.1	-0.1	-8.0
27) COc1ccc(OC)c(C(=O)c2ccccc2)c1
    2.2%[38.3 µM]	5.2	0.1	-1.8	0.0	-15.1
28) CCc1nn(CC(=O)NCCc2ccc(OC)c(OC)c2)c(=O)c2cc3occc3n12
    0.5%	.	2.0	.	-0.8	.
29) CC(C)CC(=O)Nc1ccc2c(c1)nc(CCN1CCCCC1)n2C
    0.2%	0.3	21.0	-2.0	-0.6	-18.1
30) Cc1ccc(-n2ncc(C(=O)NC3CC3)c2C2CCN(C(=O)OC(C)(C)C)CC2)cc1
    -0.7%	2.8	-18.4	3.2	0.2	-6.7
31) CCSCc1nnc(SCC(=O)c2ccc(OC)cc2)n1C
    -2.0%	-7.8	-8.1	-6.0	0.1	-17.2
32) Cc1ccc(S(=O)(=O)N2CCCCC2)cc1C(=O)OC1CCCCC1=O (stereo not given)
    0.3%	5.0	3.2	-3.5	-0.1	-24.3
33) O=C(NC(=S)Nc1cc(C(F)(F)F)ccc1Cl)c1ccccc1
    9.7%	5.1	5.1	-5.0	-0.1	-15.4
34) CCNc1ccc(C(=O)OCC(=O)NCc2ccccc2Cl)cc1[N+](=O)[O-]
    ?	0.8	10.5	-1.6	0.1	7.0
35) CCC(=O)Nc1cccc(-c2cn3ccsc3n2)c1
    -0.6%	-10.1	-18.4	-1.8	-0.4	5.2
36) O=C(O)Cn1c(CCS(=O)(=O)c2ccc(Br)cc2)nc2ccccc21
    -1.1%	7.2	6.9	-4.9	1.2	-11.2
37) Cc1cccc(CSCc2ccc(C(=O)NC(C)C)o2)c1
    -1.3%	-2.0	-27.5	8.5	1.5	0.6
38) CCn1cc(-c2cc(C(=O)O)c3ccccc3n2)c(C)n1
    -0.2%	3.4	12.9	1.9	-0.5	17.8
39) Cc1ccc(C)c(OCC(O)CN2CCC(Cc3ccccc3)CC2)c1 (stereo not given)
    8.5%	-5.3	5.9	-7.2	3.8	-15.6
40) CCCn1nc(CC(=O)OCC)c2ccccc2c1=O
    -0.3%	-10.3	7.0	-1.1	0.0	-1.2
41) Cc1cc(C(=O)c2ccc(C(C)(C)C)cc2)c(NC(=O)CCl)s1
    -1.7%	-4.6	-10.0	-4.8	0.7	3.1
42) C[n+]1ccccc1/C=C/c1ccc(C#N)cc1
    3.3%	2.9	10.5	2.1	0.3	-2.6
43) CC(C)CC(O)(CC(C)C)C(=O)NNc1ccccc1
    -2.0%	7.4	-6.1	-2.5	-0.3	2.4
44) O=C(NCc1ccccn1)C1CN(S(=O)(=O)c2ccccc2)CCN1S(=O)(=O)c1ccccc1 (stereo not given)
    -0.6%	-23.6	-2.3	-3.0	0.4	-2.5
45) Cc1cnc(NC(=O)CSc2ccc(Cl)cc2)s1
    -1.0%	-0.4	3.6	-2.8	-0.1	10.1
46) Cc1ccc(CSc2nnc(-c3cnccn3)n2C)cc1
    3.2%	10.7	37.9	-1.1	0.6	-8.4
47) Cc1cccc(NC(=O)c2cc([N+](=O)[O-])ccc2N2CCCCC2)n1
    0.1%	1.9	10.0	5.3	-1.2	0.5
48) O=C(C[C@H]1C/C=C/CC[C@H](Cc2ccc(F)cc2)C(=O)O[C@H](c2ccccc2)CNC1=O)NCCO
    0.0%	-1.1	5.0	-0.8	-0.5	-4.8
49) C=CCNS(=O)(=O)c1ccc2nsnc2c1
    .	-7.9	5.5	0.6	0.0	-8.0
50) CCn1ccnc1CN(C)C(=O)c1cc(COc2ccc(-n3cncn3)cc2)on1
    -0.8%	-1.4	4.6	0.1	-0.1	-9.1
51) c1ccc(SCc2nc3ccccc3[nH]2)cc1
    -1.6%[38.3 µM]	25.4	-7.3	-4.6	0.7	-6.9
52) COC(=O)c1ccc(C(=O)OC)c(NC(=O)CSCc2ccc(Cl)cc2)c1
    6.5%	0.5	64.2	-2.0	0.0	-16.5
53) O=C(Nc1ccc2nc(SCC(=O)N3CCCC3)sc2c1)c1ccc(F)cc1
    1.0%	.	9.1	.	1.5	.
54) CN1C(=O)[C@H]2[C@@H](c3ccccc3)N[C@]3(CCCN(Cc4ccco4)C3=O)[C@H]2C1=O
    0.5%	1.4	-1.4	-7.2	-0.6	0.9
55) C=CCc1cccc(Cl)c1OCCON1C(=O)CCC1=O
    -0.5%	6.6	-0.5	-1.1	-0.1	-3.8
56) Cc1cccc(NC(=O)Cn2nnc(-c3cccs3)n2)c1C
    2.0%	2.3	-8.0	3.2	0.3	-1.8
57) CCOC(=O)c1nnc2cc(-c3ccccc3)nn2c1C
    -0.4%	-13.7	8.5	1.9	-0.3	-2.3
58) CCOC(=O)c1ccccc1NC(=O)N1CCC(N2CCN(Cc3ccccc3)C(=O)C2=O)CC1
    1.2%	.	23.1	.	3.2	.
59) O=S(=O)(NCc1ccccc1)c1ccc(S(=O)(=O)N(Cc2cccs2)CC2CCCO2)cc1 (stereo not given)
    7.0%[38.3 µM]	2.4	-10.1	-0.3	1.1	-0.2
60) COc1ccccc1N1CCN(C(=O)c2cccc(N3C(=O)NC4CC3(C)Oc3ccccc34)c2)CC1 (stereo not given)
    1.6%	-1.4	10.4	-1.4	0.3	-17.9

# Record cards (already shown). Values in the order: PINK1 expr mod, Six1-Eya2 blk, TRPML1 inh, D2 agonist, TRPML1 agonist, D2 PAM
# Cc1ccc(C)c(OCC(O)CN2CCC(Cc3ccccc3)CC2)c1 (stereo not given) is listed with 8.5%, -5.3, 5.9, -7.2, 3.8, -15.6
# Cc1ccc(S(=O)(=O)N2CCCCC2)cc1C(=O)OC1CCCCC1=O (stereo not given) is listed with 0.3%, 5.0, 3.2, -3.5, -0.1, -24.3
# Cc1cc(C(=O)c2ccc(C(C)(C)C)cc2)c(NC(=O)CCl)s1 is listed with -1.7%, -4.6, -10.0, -4.8, 0.7, 3.1

# Next part:
# Second line of a record: PINK1 expr mod	Six1-Eya2 blk	TRPML1 inh	D2 agonist	TRPML1 agonist	D2 PAM
61) C/C(=N\NC(=O)c1ccc2c(c1)OCO2)c1ccc(NS(C)(=O)=O)cc1
    4.1%	-21.6	-9.2	-2.7	-0.5	-9.8
62) COc1ccc(CNc2nc3nc(C)c(Cl)c(=O)n3[nH]2)cc1OC
    -1.3%	-0.8	-12.3	-2.8	0.5	-19.9
63) Cc1ccc(C(=O)Nc2ncccc2O)o1
    2.3%	-4.3	-2.7	-1.1	1.3	6.7
64) Cn1c(=O)oc2cc(S(=O)(=O)NCCN3CCN(c4ccccc4F)CC3)ccc21
    0.0%	9.5	-16.5	1.0	-0.1	-8.1
65) O=C(CNS(=O)(=O)c1ccc(F)cc1)N1CCCCCC1
    1.5%	5.9	-2.5	1.2	1.7	-2.8
66) Cc1ccc(C(=O)NCC(=O)OCC(=O)/C=C2\N(C)c3ccccc3C2(C)C)cc1C
    -0.3%	-1.6	-10.6	-3.4	6.5	-5.3
67) CCOC(=O)c1c(NC(=O)CN2C(=O)NC3(CCC(C)CC3)C2=O)sc(C(=O)N(C)C)c1C (stereo not given)
    -0.8%	4.3	5.4	1.0	-0.7	-14.2
68) CC(=O)c1cccc(NC(=O)c2ccc(-n3c(C)nnc3C)cc2)c1
    3.9%	.	0.2	.	-0.8	.
69) Cc1nn(CCc2nn[nH]n2)c2nc(C(F)(F)F)cc(C(F)(F)F)c12
    -0.1%	4.8	32.9	-2.3	0.1	-10.0
